# Yeast UUG start: yeast start codon fidelity modulation; S. cerevisiae UUG-firefly luciferase reporter, luminescence/redox ratio; activity score, % at 18.7 µM; 350,000 tested, 0.13% active; AID 602363;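 active means replicate mean at a twofold rise or more, about +100% in these data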;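 further: firefly luciferase made from a UUG start codon reports start codon fidelity; reporter light over untreated wells divided by growth signal over untreated wells; some hits fall short of that in this replicate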
# PABP polyA inh: PABP-poly(A) binding inhibition. PABP-poly(A) RNA binding, fluorescence polarization. inhibition, % at 35 µM. 290,000 tested, 1% active. AID 2014;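 active means 50% or more with normal probe brightness, or confirmed in later tests; inconclusive means above 50% with abnormal brightness, or retests that disagree; inactive means below 50% or failed in later tests; about a fifth of its hits are not listed in these tables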;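 further: calls also rest on retests at 20 µM and on dose response follow-up; controls were probe without protein and protein plus probe with vehicle; some compounds called inactive have numbers as strong as hits; many hits fall short of the cut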
# Target sequence (P11940 whole entry, looked up): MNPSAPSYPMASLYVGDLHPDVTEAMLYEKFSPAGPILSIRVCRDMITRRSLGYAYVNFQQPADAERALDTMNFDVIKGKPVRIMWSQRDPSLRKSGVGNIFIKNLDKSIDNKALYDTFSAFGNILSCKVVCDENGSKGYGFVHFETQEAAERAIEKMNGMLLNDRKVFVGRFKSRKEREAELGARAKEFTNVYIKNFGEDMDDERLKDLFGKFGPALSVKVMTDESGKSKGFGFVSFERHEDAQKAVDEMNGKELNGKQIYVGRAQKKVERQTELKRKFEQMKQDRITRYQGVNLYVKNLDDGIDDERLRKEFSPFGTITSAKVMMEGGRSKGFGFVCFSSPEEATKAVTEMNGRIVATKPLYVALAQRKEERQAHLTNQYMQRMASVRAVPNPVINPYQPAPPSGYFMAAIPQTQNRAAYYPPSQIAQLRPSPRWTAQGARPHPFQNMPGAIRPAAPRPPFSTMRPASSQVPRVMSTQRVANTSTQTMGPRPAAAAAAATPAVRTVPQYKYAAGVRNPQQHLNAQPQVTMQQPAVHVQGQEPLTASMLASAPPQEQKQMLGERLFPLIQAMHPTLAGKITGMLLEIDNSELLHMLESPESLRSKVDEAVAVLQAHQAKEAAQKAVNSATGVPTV
# MT1-MMP act inh: MT1-MMP (human) activation inhibition; AID 651647; GFP/RFP ratio change, % at 20 µM; P50281; HT1080 RFP-PRO-GFP cells, GFP/RFP ratio fluorescence, overnight; percent of plate control window, DMSO zero; 360,000 tested, 0.061% active;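 active means GFP/RFP ratio change of at least 30% with cell ATP level not reduced by more than half and red fluorescence within 50% of control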; further: strong numbers were not always called active
#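 Test system: HT1080 cells expressing an RFP-PRO-GFP fluorescent reporter construct / Compound dosing: single-point 20 µM compound, 1% DMSO / Schedule: cells overnight before dosing, compound overnight, 37 °C, 5% CO2 / Evaluation: GFP/RFP fluorescence ratio / Control set: DMSO and RFP-L50D-GFP cell wells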
# Env fusion inh: blocks HIV Env-driven cell-cell fusion; 360,000 tested, 1.1% active; inhibition, % at 12.3 µM; HeLa-JRFL Env/CEM21 cell fusion, luciferase;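 active means mean replicate inhibition score of at least 50 and every replicate individually at or above 50; inconclusive means only one of the two criteria met; inactive means mean below 50 and not all replicates reaching 50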;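 further: 0% = plate neutral controls and 100% = maraviroc near 300 nM; one replicate is shown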
# Rce1 inhib: inhibitors of yeast Ras-converting enzyme | yeast membranes, quenched prenylated peptide cleavage fluorescence | calls only | Q03530 | 290,000 tested, 0.27% active;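 active means fall in fluorescence gain of 50% or more versus controls, with final raw signal at or below 3038400; inconclusive means same 50% fall but final raw signal above 3038400; inactive means fall in fluorescence gain under 50%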;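 further: plate controls were neutral control wells for no effect and wells lacking membranes for full effect; tested at 10 µM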
# CSC inhib: cancer stem cell inhibition | 300,000 tested, 1.1% active | cancer stem cell-like cells viability, luminescence | inhibition, % at 7.5 µM;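 active means mean at 75% or more and at least half the replicates too; inconclusive means mean and replicates disagree; tested in HMLE shEcad cells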;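 further: 0% = median of negative and 100% = median of positive control wells; the first replicate is given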
# eIF4H inh: inhibitors of RNA binding by human eIF4H | eIF4H fluorescence polarization binding assay | inhibition, % at 35 µM | 290,000 tested, 0.94% active | AID 2012;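 active means 50% or more with normal probe brightness, or confirmed in later tests; inconclusive means above 50% with abnormal brightness, or retests that disagree; inactive means below 50% or failed in later tests; about a fifth of its hits are not listed in these tables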;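 further: calls also rest on retests at 20 µM and on dose response follow-up; 0% = protein and probe with vehicle and 100% = probe without protein; strong numbers were not always called active; many hits fall short of the cut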
# MT1-MMP act inh RFP: also measured in MT1-MMP act inh; calls as there; RFP signal change, %; measured here: RFP expression control read;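 0 = vehicle wells; hits needed this value within 50% of zero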
# * hit, by the source's call; i = inactive; ? = inconclusive; . = not tested or not shown. These rows are one share of the data; count on the stated rates, not on these rows.
Structure	Yeast UUG start	PABP polyA inh	MT1-MMP act inh	MT1-MMP act inh RFP	Env fusion inh	Rce1 inhib	CSC inhib	eIF4H inh
CCN(CC(=O)Nc1ccc(NC(C)=O)cc1)C(=O)CSc1ncnc2sc(C)c(C)c12	-16	.	-2	1	-34	i	9	.
CCn1c(=O)c(=O)[nH]c2cc(C(=O)NC(C)c3ccc(S(N)(=O)=O)cc3)ccc21 (configuration not stated)	-4	9	1	4	16	i	-12	-2
CCOC(=O)c1c(C)[nH]c(C(=O)CSc2nnc(-c3ccncc3)n2CC)c1C	1	-15	-6	-3	31	i	-2	0
Cc1nn(C)c(C)c1CN(C)C(=O)C1CCC(=O)N(C2CCCCCC2)C1 (configuration not stated)	-14	0	0	2	-3	i	-10	-2
CCOc1ccc2[nH]c(C(=O)N/N=C/c3ccccc3OC)cc2c1	-15	-10	-2	-8	-81	i	65	-1
NC(=S)NN=Cc1nccc2c(C(F)(F)F)cccc12	-29	.	19	-7	?	.	.	.
CCN(C[C@H]1N[C@@](C)(C(=O)OC)[C@H]2C(=O)N(C)C(=O)[C@@H]12)S(=O)(=O)c1ccc(OC)cc1	-20	.	3	7	-104	.	.	.
CN(C(=O)COC(=O)C12CC3CC(CC(Cl)(C3)C1)C2)c1ccccc1	-1	.	-4	-3	-10	.	-12	.
COc1ccccc1OCC(=O)NC1CC(C)(C)NC(C)(C)C1	-23	3	1	3	0	i	-1	-3
CN(C)C(=O)CCc1nc(-c2ccc(C(C)(C)C)cc2)no1	-31	-4	6	-5	.	i	18	-12
Cc1ccc(C(=O)CN(C(=O)c2ccc(Cl)c(Cl)c2)N2C(=O)C3CCCCC3C2=O)cc1C (configuration not stated)	-5	-3	6	4	-2	i	-6	3
CC(C)(C)c1ccc(C(=O)Nc2ccc(NC(=O)C(=O)O)cc2)o1	.	7	-1	1	12	i	-15	-3
CCC(=O)N1c2ccc(S(=O)(=O)CCC(=O)NCc3cccs3)cc2CC1C (configuration not stated)	.	-12	1	5	-5	i	12	-1
CCCNC(=O)Nc1nnc(C2CC2)s1	5	2	1	2	14	i	-13	0
Cc1ccc(NC(=O)CN2C(=O)NC(C)(c3ccc(Cl)cc3)C2=O)c(Br)c1 (configuration not stated)	0	10	2	-3	5	i	4	-1
CCO[C@@H]1OC(C(=O)Nc2ccccc2)=C[C@H](c2ccc(C(F)(F)F)cc2)[C@H]1CCCO	-4	4	4	3	37	i	24	-12
O=C1C([N+](=O)[O-])=C(O)c2cccc3cccc1c23	.	57*	.	.	.	i	4	85*
CCOc1ccc(-c2nc(-c3ccc(OC)cc3)no2)cc1OCC	4	-1	-4	-7	-2	i	3	-4
CCCn1c(N)c(Sc2ccc(Cl)cc2)c(=O)n(CCC)c1=O	-20	2	1	-1	.	i	-27	-5
O=C(NCc1cccnc1)C1CC(c2ccccc2Cl)=NO1 (configuration not stated)	-8	0	4	2	6	i	-26	-7
CO[C@@H]1CN(C)C(=O)c2ccc(NC(=O)c3ccccc3F)cc2OC[C@@H](C)N(CC2CCOCC2)C[C@@H]1C	-1	.	-1	2	19	.	.	.
CCOc1ccc(NC(=O)CCCc2cc(-c3ccc(OCC)cc3)on2)cc1	-3	-6	0	0	20	i	-21	8
COc1ccc(NS(=O)(=O)c2cccc(C(=O)NCC3CCCO3)c2)cc1 (configuration not stated)	.	.	4	-3	-5	i	.	.
O=C(CSc1nnc(-c2ccncc2)o1)N1CCCCCC1	.	6	0	-3	-4	i	.	-1
CCOC(=O)C1c2cccc(O)c2CCN1C(C)=O (configuration not stated)	-11	.	-5	-1	1	.	.	.

# (cont.)
Structure	Yeast UUG start	PABP polyA inh	MT1-MMP act inh	MT1-MMP act inh RFP	Env fusion inh	Rce1 inhib	CSC inhib	eIF4H inh
N/C(=N\OC(=O)Cc1cccs1)c1ccc(Br)cc1	-8	2	1	6	-35	i	-21	-7
COc1ccc(S(=O)(=O)Nc2c(NC3CCCCC3)c3ccccc3oc2=O)cc1OC	-9	-5	-3	-4	5	i	-1	-9
Cc1ccc(S(=O)(=O)CCC(=O)OCC(=O)NC(C)c2ccccc2)cc1 (configuration not stated)	8	.	-1	2	3	.	.	.
COc1ccc(C2C(C(=O)c3ccc(C)o3)=C(O)C(=O)N2Cc2cccnc2)cc1OC (configuration not stated)	-3	18	-1	-1	-7	i	-3	-7
N#Cc1c(-c2ccncc2)cc(-c2ccc(F)cc2)nc1N	-12	7	-1	1	-5	i	-11	-1
Fc1ccc(-c2nc3ccc(Cl)cn3c2Cc2ccccc2)cc1	-20	.	-3	-8	7	.	.	.
O=C1c2ccccc2NC(c2cccs2)N1O (configuration not stated)	0	.	-4	-1	-9	.	.	.
COc1ccccc1CC(=O)N1CCC(n2nccc2NC(=O)C2CCOC2)CC1 (configuration not stated)	-10	-13	-5	0	0	i	0	-7
Cc1ccc(-c2nc(CN(C)Cc3cccc4cnccc34)c(C)o2)s1	.	6	11	-15	10	i	-8	1
O=C(NCc1cccnc1)C(=O)NCC1CCCO1 (configuration not stated)	.	-5	-1	0	-9	i	-9	2
Cc1cc(C)c2c(=O)c(C#N)coc2c1	.	-10	0	4	7	.	37	-8
COc1ccc(NC(=O)CN(C2CCCCC2)S(C)(=O)=O)cc1OC	-4	-4	-1	3	.	i	-14	-2
CCC1=NN(C(=O)C(=O)Nc2ccc(Br)cc2)C(O)(C(F)(F)F)C1 (configuration not stated)	.	5	5	5	7	.	-15	7
Cc1cc(Br)ccc1NCc1ccccn1	.	2	7	-6	-22	i	8	0
COc1ccc(NC(=O)c2cc(Br)ccc2Cl)c(OC)c1	.	3	1	2	.	i	2	4
O=C(CCN1C(=O)C2C3CCC(C3)C2C1=O)OCC(=O)c1ccc(Br)cc1 (configuration not stated)	1	3	1	5	2	i	0	-4
O=C(O)C1CCN(S(=O)(=O)c2cccc3nsnc23)CC1	-18	6	-3	3	-2	i	-13	-2
CCNC(=S)Nc1ccc2c(c1)c(=O)n(C)n2Cc1ccc(Cl)cc1	-7	.	-1	-3	-63	.	.	.
COCCOC(=O)c1c(C)n(C)c2ccc(OC(=O)C3CC3)cc12	1	5	8	6	-99	i	1	-8
COc1cccc(C(=O)NCC2CCCN2S(=O)(=O)c2cccs2)c1 (configuration not stated)	-9	.	-1	0	.	i	-11	.
O=CN1CCN(C(C(=O)NC2CCCCC2)c2cc3c(cc2[N+](=O)[O-])OCO3)CC1 (configuration not stated)	.	-1	-4	-2	7	i	-33	30
Cc1ccccc1N1C(S)=C(C#N)C(=O)NC1c1cccs1 (configuration not stated)	-18	1	2	1	-46	i	-3	-3
O=C(Nc1ccc2ccccc2c1)C(c1ccccc1)C1CCCC1 (configuration not stated)	-2	-2	-17	-6	11	i	42	-2
COc1ccc(/C=C/C(=O)c2ccc3c4c(cccc24)CC3)cc1	-4	2	3	2	.	i	.	3
Cc1cccc(-n2c(O)cnc2Nc2nc(C)cc(C)n2)c1	-14	9	-1	1	1	i	13	-2

# (further entries)
Structure	Yeast UUG start	PABP polyA inh	MT1-MMP act inh	MT1-MMP act inh RFP	Env fusion inh	Rce1 inhib	CSC inhib	eIF4H inh
CCCCn1c(SCC(=O)NCc2ccco2)nc2ccc(N3CCOCC3)cc2c1=O	-17	16	-5	-2	1	i	35	3
CCCCOc1ccc(C(C)NC(=O)CCS(=O)(=O)Cc2ccccc2Cl)cc1 (configuration not stated)	.	-7	2	-4	6	i	-19	-6
CC(=O)C1=C(C)N(Cc2ccccc2)C(=O)N[C@H]1c1cccc(F)c1	5	.	0	-4	-39	i	.	.
O=C(c1ccc(Br)o1)N1CCN(CCOc2ccccc2)CC1	-7	9	5	-2	0	i	-21	-6
Cc1cc(-c2ccc(Br)cc2)n2nc(C)cc2n1	-15	.	0	-2	-1	.	.	.
O=c1c2c(nc3n1CCS3)c1cc(F)ccc1n2Cc1cc(=O)n2cc(Cl)ccc2n1	.	3	.	.	.	i	-10	6
CCCc1c(OCCCOc2ccc(OCC(=O)O)cc2)ccc(C(C)=O)c1O	-26	.	3	1	4	.	3	.
Cc1noc(NS(=O)(=O)c2ccc(NC(=O)NC(C)(C(F)(F)F)C(F)(F)F)cc2)c1C	-3	1	7	4	12	i	-14	-8
Cc1ccc(-c2nn(CC(N)=O)c(=O)c3ccccc23)cc1S(=O)(=O)N(C)C	-13	-12	5	4	-25	i	-13	6
Cn1c(NCC(O)c2ccccc2)nc2c1c(=O)n(Cc1ccc(Cl)c(Cl)c1)c(=O)n2C (configuration not stated)	-4	.	3	-23	.	i	-10	.
Cc1ccccc1OCC(=O)NC(=S)Nc1ccc(S(=O)(=O)NC2CCCCC2)cc1	-15	-10	2	-10	.	.	9	-13
O=C(CSc1nc2cc(Cl)ccc2s1)Nc1cccc(S(=O)(=O)N2CCOCC2)c1	.	1	8	-4	29	i	-1	-1
COc1cc(C(=O)NC(=S)Nc2ccc3ccccc3c2)cc(OC)c1OC	10	.	-5	1	4	.	.	.
CCn1c(CSc2nc(C)cc(C)n2)nnc1SCC(=O)Nc1nc(-c2ccccc2)cs1	-17	-1	4	-13	24	i	0	-4
Cc1cc(O)cc(O)c1/C=N/NC(=O)c1ccc2c(c1)OCCO2	-4	.	2	-3	-3	.	.	.
CCOc1ccc(NC(=O)CN2CCN(CC(=O)c3ccc(OCC)cc3)CC2)cc1	-15	3	1	-3	.	i	.	-6
Cc1ccc(Cn2nnc3c(=O)[nH]c(C4CCN(S(=O)(=O)/C=C/c5ccccc5)CC4)nc32)cc1	-4	-15	-4	-11	-1	i	4	-4
COc1ccc(NC(=S)N(CCCN2CCC(C)CC2)Cc2cccs2)cc1Cl	-49	?	4	-3	7	i	17	10
Cc1cc(C)n(-c2nc(-c3ccc(Cl)c(Cl)c3)cs2)n1	-9	-3	-2	-1	.	i	14	-12
Oc1ccc(N=Nc2ccccc2-c2nn[nH]n2)c(O)c1	-10	39	18	2	5	i	.	30
CN(Cc1cc([N+](=O)[O-])c2cccnc2c1O)C1CCCCC1	.	16	.	.	.	i	0	45
Cc1ccc(-n2c(SCCN)nnc2-c2cccc(C)c2)cc1	-17	0	-2	0	-27	i	-4	-6
CNC(=O)CSc1nnc(-c2cnccn2)n1C	-5	-1	-3	4	-17	i	-4	9
CCOC(=O)c1ccc(/C=N/O)[n+](Cc2ccccc2)c1	-3	7	1	-1	-2	i	-29	3
Cc1ccc(C(=O)C(C)OC(=O)Cn2cnc3c2c(=O)n(C)c(=O)n3C)cc1 (configuration not stated)	3	.	0	-1	-5	i	-2	.
CCOc1ccccc1CN1C(=O)c2ccccc2C1C(=O)NC(C)CC (configuration not stated)	0	3	5	7	36	i	-10	-4
Cc1cc(C)nc(NC2=NCC(=O)N2c2ccccc2Br)n1	-16	6	-2	-2	-19	i	-13	-1
CC(C)(C)CC(=O)Nc1nnc(SCC(=O)NCc2cccs2)s1	.	2	2	1	4	i	-5	6

# Grouped by structure: those above with a tert-butyl group (3)
Structure	Yeast UUG start	PABP polyA inh	MT1-MMP act inh	MT1-MMP act inh RFP	Env fusion inh	Rce1 inhib	CSC inhib	eIF4H inh
CN(C)C(=O)CCc1nc(-c2ccc(C(C)(C)C)cc2)no1	-31	-4	6	-5	.	i	18	-12
CC(C)(C)c1ccc(C(=O)Nc2ccc(NC(=O)C(=O)O)cc2)o1	.	7	-1	1	12	i	-15	-3
CC(C)(C)CC(=O)Nc1nnc(SCC(=O)NCc2cccs2)s1	.	2	2	1	4	i	-5	6
